RanGTP-Impb inh – inhibitors of RanGTP-importin-beta interaction, primary screen, biochemical, FRET, CFP-Ran, YFP-importin-beta, homogeneous; 300,000 compounds, 1.1% hits; inhibition, % (no concentration beside the values); AID 2216, 2009; cell-free CFP-Ran/YFP-importin-beta FRET ratio; Ran GTPase (GTP-bound) - importin-beta complex;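 active = most replicates above 15%; inconclusive = exactly half above 15%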;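 also: 0% = DMSO wells and 100% = Ran loaded with GDP instead of GTP; wells of about 40 µL received 100 nL stock; the first replicate is given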
Ecoli rRNA inh – reduced GFP signal of wild-type E. coli, primary screen, bacterial rRNA inhibitor project, GFP/RFP fluorescence, OD600, single point; E. coli WT GFP vs humanized-ribosome RFP mutants, 24 h; active compounds read low; DMSO median 0, no signal -100; GFP signal change (wild-type ribosome), % (test concentration not listed); 350,000 compounds, 1.6% hits;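 active = significant combined selectivity score with lowered wild-type GFP, culture density cut under 30%, mutant RFP and density less affected; inactive = any of these conditions unmet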; also: one replicate is shown; some compounds called inactive have numbers as strong as hits
Beta cell apopt – inhibitors of cytokine-induced beta cell apoptosis, primary screen, luminescence; INS-1E cytokine-induced death, ATP luminescence, 48 h; percent of positive-control rescue, neutral wells zero; 300,000 compounds, 0.8% hits; AID 435005, 2010; protection from apoptosis, % (test concentration not listed);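 active = all replicates at 75% or more, or half of them and the mean; inconclusive = half reach 75% but not the mean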;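 also: 0% = cytokine-treated negative control wells and 100% = positive control rescue; higher means more ATP so stronger rescue from cytokine killing; wells of about 40 µL received 100 nL stock; the first replicate is given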
T cruzi inh – inhibitors of intracellular T. cruzi growth, primary screen, luminescence, NIH3T3 host cells. T. cruzi beta-gal in NIH3T3, 90 h. inhibition, % (test concentration not listed). 300,000 compounds, 1.4% hits. AID 1885, 2009;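 active = mean inhibition across valid replicates above about 55%, limit read from the data; inconclusive = mean below that limit but half or more replicates reach it; inactive = mean below it, under half of replicates reach it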;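 also: signal also drops with host cell toxicity which is not excluded here; 0% = plate median of DMSO wells and 100% = zero luminescence signal; higher percent means less beta-gal luminescence so fewer parasites; stock transfer was 50 nL into about 50 µL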
Calb FLC – C. albicans growth inhibition with fluconazole, primary screen, CaCi-2 strain, Alamar Blue fluorescence. C. albicans CaCi-2 (fluconazole-resistant clinical isolate) + fluconazole, 48 h. growth inhibition, % (test concentration not listed). 300,000 compounds, 0.57% hits;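 active = most replicates above 75%; inconclusive = exactly half above 75%; inactive = most below 75%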;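 also: all wells also contain fluconazole at 8 µg/ml as a sub-toxic cotreatment; 0% = median of DMSO wells and 100% = median of geldanamycin control wells; wells of about 8 µL received 7.5 nL stock; the first replicate is given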
ALR H2O2 inh – inhibitors of human ALR sulfhydryl oxidase, primary screen, biochemical, H2O2 detection, HRP-luminol luminescence, single point; AID 485317, 2010; inhibition, % (no concentration beside the values); 290,000 compounds, 3.8% hits; FAD-linked sulfhydryl oxidase ALR (Homo sapiens), P55789; purified ALR, DTT oxidation;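 active = mean and each replicate at 75% or more; inconclusive = only one of the two met; inactive = neither met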;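 also: stock transfer was 7.5 nL into about 7.5 µL; 0% = neutral wells and 100% = wells with inactivated enzyme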
Target sequence (P55789 whole entry, looked up): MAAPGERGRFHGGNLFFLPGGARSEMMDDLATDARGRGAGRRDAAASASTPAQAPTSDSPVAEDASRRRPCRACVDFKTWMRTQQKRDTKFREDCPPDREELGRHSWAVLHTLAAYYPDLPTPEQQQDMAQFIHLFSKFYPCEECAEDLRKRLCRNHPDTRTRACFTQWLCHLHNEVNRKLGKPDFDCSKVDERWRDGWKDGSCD
AF4-AF9 inh – inhibitors of AF4 peptide binding to AF9, primary screen, biochemical, AlphaScreen, biotin-AF4 peptide, FLAG-AF9, single point | Protein AF-9 (Homo sapiens), P42568 | inhibition, % at 10 µM | 350,000 compounds, 0.47% hits;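 active = every replicate reaching a set inhibition limit, whatever the replicate mean, cut at about 25% in these data; inconclusive = mean inhibition reaches that limit but some replicates miss it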;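 also: 0% = plate neutral control median and 100% = total signal loss; the record names both 10 and 1 µM as test concentration; the first replicate is given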
Target sequence (P42568 whole entry, looked up): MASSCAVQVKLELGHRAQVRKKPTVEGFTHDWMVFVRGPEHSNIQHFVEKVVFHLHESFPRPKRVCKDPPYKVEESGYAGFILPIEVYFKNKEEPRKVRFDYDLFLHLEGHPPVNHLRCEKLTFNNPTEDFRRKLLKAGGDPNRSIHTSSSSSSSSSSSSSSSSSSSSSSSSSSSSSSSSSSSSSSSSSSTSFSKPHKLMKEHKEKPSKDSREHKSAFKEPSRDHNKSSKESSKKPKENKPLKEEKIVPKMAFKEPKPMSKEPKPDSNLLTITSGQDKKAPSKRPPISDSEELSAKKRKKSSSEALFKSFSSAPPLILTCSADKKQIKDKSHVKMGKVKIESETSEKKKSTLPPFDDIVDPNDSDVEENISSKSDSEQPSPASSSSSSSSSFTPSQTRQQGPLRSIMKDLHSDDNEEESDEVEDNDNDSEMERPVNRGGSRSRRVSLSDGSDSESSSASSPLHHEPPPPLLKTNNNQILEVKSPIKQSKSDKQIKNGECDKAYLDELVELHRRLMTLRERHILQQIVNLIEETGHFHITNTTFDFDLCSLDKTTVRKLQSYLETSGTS
FGF22 binding – binders of human FGF22 protein, primary screen, FGF22 synaptogenesis inhibitor project, biophysical, thermal shift, single point; Fibroblast growth factor 22 (Homo sapiens), Q9HCT0; recombinant FGF22 thermal shift, SYPRO orange fluorescence; percent of sucrose octasulfate shift, DMSO zero; calls only at 9.99 µM; 340,000 compounds, 1.5% hits; AID 651658, 2012;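 active = melting point raised past a set limit in the mean and every replicate; inconclusive = no clear call; three in four hits are not shown here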
Target sequence (Q9HCT0 whole entry, looked up): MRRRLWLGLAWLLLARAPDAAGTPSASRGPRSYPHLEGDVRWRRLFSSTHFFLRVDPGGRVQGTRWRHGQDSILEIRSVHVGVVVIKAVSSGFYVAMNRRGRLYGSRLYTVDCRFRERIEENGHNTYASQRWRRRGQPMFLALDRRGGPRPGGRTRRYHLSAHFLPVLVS
Ecoli rRNA inh OD600 – further read-out of Ecoli rRNA inh, marked with its call; OD600 change, %; measured here: OD600 growth;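 optical density of the mix in the first replicate; 0 = DMSO median and -100 = no signal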
Ecoli rRNA inh RFP – further read-out of Ecoli rRNA inh, marked with its call; RFP signal change, %; measured here: RFP humanized mutant strains;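 first replicate; 0 = DMSO median and -100 = no signal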
The depositor's hits bear a star; i = inactive; ? = inconclusive; / = no result given. An excerpt. The share of hits here may be higher or lower than overall.

entry	SMILES	RanGTP-Impb inh	Ecoli rRNA inh	Ecoli rRNA inh OD600	Ecoli rRNA inh RFP	Beta cell apopt	T cruzi inh	Calb FLC	ALR H2O2 inh	AF4-AF9 inh	FGF22 binding
1	O=C(c1ccc(Cl)c(Cl)c1)N1CCC(=O)N(C(COCc2ccc(Cl)cc2)Cc2ccccc2)CC1 (stereo not given)	6.5	-4	-4	-2.6	14	30	4	-7	2.1	i
2	CCN(CC)c1c([N+](=O)[O-])c(=O)oc2ccccc12	-4.6	/	/	/	1	-14	-6	-2	-2.0	/
3	CCN(C(=O)c1cc(S(=O)(=O)N2CCCC2)ccc1C)C1CCS(=O)(=O)C1 (stereo not given)	/	-1	4	2.4	2	/	/	-4	2.3	i
4	O=C(c1ccc(N2CCCC2)c([N+](=O)[O-])c1)N1CCN(c2ccccn2)CC1	-1.2	-35	-36	-3.2	1	4	-6	-3	0.7	i
5	O=C1C=C(NNC(=O)c2ccncc2)CC(c2ccccc2)C1 (stereo not given)	-1.7	34	12	6.9	-3	-8	-22	18	-0.5	/
6	CN(C(=O)COC(=O)c1cccs1)c1c(N)n(Cc2ccccc2)c(=O)[nH]c1=O	3.4	18	12	-1.2	/	4	5	-9	-0.4	i
7	COc1ccc(NC(=O)Cc2nnc(SCC(=O)NC3CCCCC3C)n2C)cc1 (stereo not given)	1.5	1	3	-1.8	2	-14	-11	0	0.7	i
8	O=C(CN1C(=O)COc2ccc(S(=O)(=O)N3CCOCC3)cc21)NCc1ccco1	?	2	-2	-5.7	0	2	1	26	-34	i
9	COc1ccc(CN2CCOCC2)cc1	-0.2	/	/	/	6	-2	-8	-5	/	/
10	COc1ccccc1N1CCN(S(=O)(=O)CCNC(=O)c2cccc(F)c2)CC1	5.4	-7	-12	-2.9	3	6	7	7	-0.3	i
11	CC(=O)Nc1nc(-c2ccccc2)ns1	6.2	/	/	/	4	-13	-11	-13	/	/
12	O=C(N/N=C/c1ccccc1F)NC12CC3CC(CC(C3)C1)C2	2.3	9	8	3.4	12	57*	-24	13	-2.0	i
13	CC(C)(CNc1ccc(S(=O)(=O)C(F)(F)F)cc1[N+](=O)[O-])N1CCOCC1	6.4	6	6	0.2	10	55*	13	-11	5.3	i
14	COc1ccccc1CNc1nc(=S)[nH]c2cc(OC)c(OC)cc12	3.8	-1	4	2.2	7	-10	3	-2	1.3	i
15	O=C(c1ccccc1Oc1nnnn1-c1ccccc1)N1CCOCC1	?	/	/	/	-6	0	-2	/	/	/
16	COc1cc2c(cc1NC(=O)CSc1nccn1C)oc1ccccc12	-1.2	-24	-24	-3.5	-3	20	13	49	?	i
17	O=C1c2ccccc2C(=O)N1CCOc1ccccc1Cl	0.4	10	1	5.0	-7	8	-5	-12	-6.1	i
18	CC(CN1CCC(n2nccc2NC(=O)c2ccccc2Cl)CC1)c1ccccc1 (stereo not given)	2.8	2	-5	-0.8	/	12	-5	-7	-5.6	i
19	Cc1ccc(C)c(C2NC(=O)c3ccccc3N2)c1 (stereo not given)	-0.9	4	2	0.9	13	-46	-6	-3	-0.6	i
20	CC1Cc2nc(SCC(=O)Nc3ccc4c(c3)OCO4)n(CCc3ccccc3)c(=O)c2S1 (stereo not given)	-0.2	-2	-20	-4.8	3	46	8	61	-5.6	i
21	O=C(COC(=O)C1CCN(S(=O)(=O)c2cccs2)CC1)c1cc2ccccc2o1	0.2	/	/	/	0	-3	2	2	/	/
22	CCC(C)(C(=O)NC1CCCC1)N(Cc1ccco1)C(=O)c1ccccn1 (stereo not given)	1.7	/	/	/	-4	-30	18	1	/	/
23	S=C(NCc1ccco1)N/N=C/c1cccnc1	0.4	4	2	8.1	-4	-7	3	/	2.3	i
24	Cc1csc2nc(COC(=O)c3cccc(N(C)C)c3)cc(=O)n12	/	-7	-3	-1.0	0	/	/	/	4.2	i
25	Cc1onc(-c2ccccc2Cl)c1C(=O)Nc1cccc2cccnc12	7.0	/	/	/	7	10	28	0	/	/
26	COc1ccc(S(=O)(=O)N2CCC[C@H]2C(=O)NCc2ccc(Cl)cc2)cc1	3.2	-4	-5	-0.6	6	-7	2	-5	4.4	i
27	CCc1ccccc1Nc1nc(N)nc(COC(=O)CCNS(=O)(=O)c2ccccc2)n1	4.4	-10	-9	7.2	-2	4	-1	-3	-0.1	i
28	NC(=NCCc1ccccc1)NC(=O)c1cc(Cl)ccc1O	4.7	-41	-51	-9.6	0	4	-3	-4	2.1	i
29	CCOc1cc(C(N)=O)cc(Cl)c1OCC	1.0	11	-2	-4.1	-8	-4	3	0	-2.5	i
30	COc1ccc(S(=O)(=O)N2CCCC2)cc1NC(=O)c1ccccc1F	7.0	0	5	-0.4	1	-6	-5	/	1.2	i
31	CC(C)CCC(O)(c1ccccc1)C(CN1CCOCC1)c1ccccc1 (stereo not given)	-0.3	-17	-14	-0.7	-4	0	-5	4	3.7	i
32	CS(=O)(=O)c1ccccc1-c1nc(-c2cccc(Cl)c2)no1	0.5	/	/	/	1	13	-28	3	/	/
33	COC(=O)C(NC(=O)CCc1nnc2ccc(N3CCC(C)CC3)nn12)C(C)C (stereo not given)	4.8	2	12	-2.0	-3	2	0	3	-4.6	i
34	O=C(COC(=O)c1cccc(Br)c1)NCCC1=CCCCC1	4.1	0	5	0.1	0	-24	4	-8	-3.0	/
35	COc1ccc(C(CNC(=O)c2ccc(OCc3ccccc3)cc2)N2CCOCC2)cc1 (stereo not given)	/	-22	-47	27	-1	/	/	-12	-0.5	i
36	CCc1cc(C(=O)N2CCCC(C(=O)c3ccc(Cl)cc3)C2)no1 (stereo not given)	0.2	-6	-6	0.4	-6	-5	-3	2	0.5	i
37	COc1ccccc1NC(=O)Cn1cc(C(=O)C(=O)N2CCOCC2)c2ccccc21	2.6	7	15	2.1	-3	5	-16	-2	0.6	i
38	Cc1ccccc1-n1ncc(C(C)NC(=O)c2ccccc2)c1C (stereo not given)	?	5	1	-4.9	4	-7	-13	-9	-0.3	i
39	Cc1[nH]c2ccc(F)cc2c1CCN(Cc1ccncc1)C(=S)Nc1ccccc1	2.8	-27	-28	-4.1	2	37	-8	-6	4.9	i
40	Cc1ccc(N=C2NC(=O)S/C2=C\c2ccco2)cc1	-7.9	/	/	/	7	0	-17	-5	-2.6	i
41	Cc1ccc(C)c(NC(=O)C2CCN(C(=O)c3cccs3)CC2)c1	6.1	11	16	-0.7	1	-7	1	2	1.2	i
42	COC(=O)COc1ccc(-n2cnnn2)cc1	-4.4	18	21	1.7	1	-4	-1	-2	0.7	i
43	O=C(CN1CCN(Cc2ccc(F)cc2Cl)C1=O)NCc1cccs1	-1.2	-14	-3	-7.6	2	-4	-11	0	1.2	i
44	Cc1ccc(NC(=O)CN(C)C(=O)CSc2nnc(C)s2)cc1	/	4	9	1.7	2	/	/	4	-2.7	i
45	CCc1nc(N2CCN(S(=O)(=O)c3ccc(Br)cc3)CC2)c2c(C)c(C)sc2n1	2.1	/	/	/	-5	17	3	-7	/	/
46	Cc1cc(NC(=O)c2ccccc2C)n(-c2cccc(F)c2)n1	0.6	6	12	1.4	1	7	-1	-14	-0.7	i
47	O=C(COC(=O)CCc1c[nH]c(=O)[nH]1)Nc1cccc(Cl)c1	1.2	19	12	0.1	-2	-8	-7	4	-4.6	i
48	Cc1nc(Cc2nnc(SC(C)C(=O)N3c4ccccc4NC(=O)C3(C)C)o2)cs1 (stereo not given)	/	0	-1	3.3	-1	/	/	/	-3.2	i
49	COC(=O)C1CCN(C(=O)COc2ccc(N(C)S(=O)(=O)c3ccc(C)cc3)cc2)CC1	/	-7	-7	0.7	-4	/	/	-3	-0.6	i
50	Cc1nn(CCOc2ccccc2)c(=O)n1-c1cccc(F)c1	-1.1	/	/	/	4	0	-5	-6	/	/

Taken from above:
For Beta cell apopt, cpd 27 reads -2
For Ecoli rRNA inh, cpd 31 reads -17

Only Ecoli rRNA inh RFP and T cruzi inh, for 2 of the compounds above:
| item | SMILES | Ecoli rRNA inh RFP | T cruzi inh |
| --- | --- | --- | --- |
| 30 | COc1ccc(S(=O)(=O)N2CCCC2)cc1NC(=O)c1ccccc1F | -0.4 | -6 |
| 31 | CC(C)CCC(O)(c1ccccc1)C(CN1CCOCC1)c1ccccc1 (stereo not given) | -0.7 | 0 |

Other records
entry	SMILES	RanGTP-Impb inh	Ecoli rRNA inh	Ecoli rRNA inh OD600	Ecoli rRNA inh RFP	Beta cell apopt	T cruzi inh	Calb FLC	ALR H2O2 inh	AF4-AF9 inh	FGF22 binding
51	COc1ccc(S(=O)(=O)N2CCN(C(=O)c3cc(-c4ccccc4OC)n[nH]3)CC2)cc1	-0.9	-8	-14	0.9	2	7	10	-4	-2.3	i
52	Cn1cc(C[C@H](NC(=O)OC(C)(C)C)C(=O)N[C@H](CO)Cc2ccccc2)c2ccccc21	-5.1	-4	-9	-1.8	/	-2	-6	1	-0.4	i
53	OCCNc1ncnc2c1nnn2Cc1ccccc1	3.8	-9	4	1.7	/	-5	-2	/	0.1	i
54	Cc1c(OCc2nn[nH]n2)ccc2c3c(c(=O)oc12)CCCC3	6.9	/	/	/	-1	14	3	26	/	/

Bioassay records as filed in PubChem BioAssay.
